High-throughput results (PubChem BioAssay)
Cruzain inh Det: inhibitors of Trypanosoma cruzi cruzain with detergent | P25779 | purified cruzain, Z-FR-AMC fluorescence, 0.01% Triton | Potency, µM, without a hit: max response, negative = inhibition, hits mostly inhibitors | 0.43% of 200,000 active | AID 1478;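 also: plate controls were neutral wells for no effect and buffer without enzyme for full effect; nearly all actives have a fitted effect of over 40% in size; top concentration of the series not given in the record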
Target sequence (P25779 123-467 limits assumed): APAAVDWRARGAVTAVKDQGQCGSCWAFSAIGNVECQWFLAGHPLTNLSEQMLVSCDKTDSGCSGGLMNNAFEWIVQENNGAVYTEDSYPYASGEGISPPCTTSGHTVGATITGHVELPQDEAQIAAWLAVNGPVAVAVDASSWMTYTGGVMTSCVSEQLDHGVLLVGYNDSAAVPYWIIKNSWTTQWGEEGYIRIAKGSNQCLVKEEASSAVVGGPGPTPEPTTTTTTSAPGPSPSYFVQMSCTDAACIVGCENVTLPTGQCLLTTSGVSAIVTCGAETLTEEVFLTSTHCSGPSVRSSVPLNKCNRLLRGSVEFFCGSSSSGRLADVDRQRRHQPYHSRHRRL
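Enzyme 1.5 nM, Z-FR-AMC 2 uM, NaOAc 100 mM pH 5.5, DTT 5 mM, Triton X-100 0.01%; 15 min RT compound preincubation; kinetic ex360/em450, 60 s delta.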
Marburg entry inh: Marburg virus entry inhibition | Marburg virus pseudotyped entry inhibition, cell reporter; control for the full effect not named in the record; about a third of the inactives were read at about 46 µM | Potency, µM (doses to about 37.8 µM), for the others: at the highest dose activity change, negative = inhibition, most hits filed as inhibitors | 1.8% of 300,000 active | AID 540276; active = well fitted inhibition curve with a large enough effect; inconclusive = small, poorly fitted or top-dose-only effect, or effect the other way; inactive = flat fitted curve, though single readings scatter; tested in HEK293 cells; about a fifth of its hits are not listed in these tables; also: % is scaled to controls: 0 for no effect and ±100 for the full control effect; luciferase read-out
NS1 function inh: blocks influenza NS1 protein function; S. cerevisiae slowed by influenza A NS1, growth recovery by OD600; Potency, µM (top dose mostly 46.1 µM), without a hit: at the highest dose activity, positive = more growth; 0.4% of 270,000 active; AID 2326; active means well fitted rising curve with a large enough effect; inconclusive means small, poorly fitted or top-dose-only effect; inactive means no such curve, though single readings can be large or run the other way; also: nearly all actives have a fitted effect of over 50% in size
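Compounds were scored for reversing the slow growth caused by influenza A NS1 in S. cerevisiae, measured by optical density at 600 nm. Assay medium contained 2% galactose at pH 6.0; NS1-free yeast of the same strain were the positive control.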
StopGo reporter: FMDV 2A StopGo reporter, luciferase signal; human cells with a luciferase reporter of 2A StopGo recoding; control for the full effect not named in the record; Potency, µM (doses to about 57.9 µM), inactives show top-dose signal change, negative = less light; 1.2% of 410,000 active; AID 1159524; active = well fitted falling curve with a large enough effect; inconclusive = small, poorly fitted or top-dose-only effect; inactive = no such curve, though single readings can be large or run the other way; tested in HEK293T cells; also: % is scaled to controls: 0 for no effect and ±100 for the full control effect; nearly all actives have a fitted effect of over 45% in size; luciferase light after 4 h
SARS PLpro yeast: inhibitors of SARS-CoV papain-like protease in yeast | S. cerevisiae expressing SARS-CoV PLpro, growth rescue; control for the full effect not named in the record | Potency, µM (highest dose often 32.9 µM), without a hit: at the highest dose activity, positive = growth rescue | 0.19% of 330,000 active | AID 485353; active means well fitted rising curve with a large enough effect; inconclusive means small, poorly fitted or top-dose-only effect; inactive means no such curve, though single readings can be large or run the other way; also: 0% is about no effect; nearly all actives have a fitted effect of over 55% in size; growth read by luminescence after 48 h
RE007 growth inh: less growth of the S. pombe RE007 Vpr strain | S. pombe RE007 Vpr strain, BacTiter-Glo ATP luminescence, 24 h; control for the full effect not named in the record | Potency, µM (highest dose often 92.2 µM), inactives show at the highest dose activity change, negative = less growth | 0.21% of 360,000 active; active = well fitted falling curve with a large enough effect; inconclusive = small, poorly fitted or top-dose-only effect; inactive = no such curve, though single readings can be large or run the other way;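 also: % is scaled to controls: 0 for no effect and ±100 for the full control effect; nearly all actives have a fitted effect of over 50% in size; the assay follows cell death caused by Vpr and the record does not say whether a fall means rescue or toxicity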
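Fission yeast RE007 carrying one integrated HIV-1 vpr copy, seeded at OD 0.01 in PMG+AL medium with 23 nL pinned compound. Grown 24 h at 30 degrees; viability read by BacTiter-Glo luminescence after 5 min.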
Cruzain noTriton: blocks cruzain activity in detergent-free assay | Potency, µM, without a hit: max response, negative = inhibition, hits mostly inhibitors | P25779 | 2.3% of 200,000 active | purified cruzain, Z-FR-AMC fluorescence, no detergent;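 also: plate controls were enzyme without inhibitor for no effect and buffer without enzyme for full effect; nearly all actives have a fitted effect of over 40% in size; top concentration of the series not given in the record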
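Detergent-free condition (0.00005% Triton X-100) in acetate buffer pH 5.5 with DTT. 1.5 nM enzyme and compound were pre-mixed 15 min, then 2 uM Z-FR-AMC substrate added; reaction progress from fluorescence change between first and third reads (60 s).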
LASV entry inh: blocks Lassa virus binding to or entry into cells; Lassa virus pseudotype entry inhibition, cell reporter; control for the full effect not named in the record; Potency, µM (series often up to 37.9 µM), inactives show at the highest dose activity change, negative = inhibition, most hits filed as inhibitors; 1.2% of 300,000 active; AID 540256; active means well fitted inhibition curve with a large enough effect; inconclusive means small, poorly fitted or top-dose-only effect, or effect the other way; inactive means flat fitted curve, though single readings scatter; tested in HEK293 cells; also: % is scaled to controls: 0 for no effect and ±100 for the full control effect; nearly all actives have a fitted effect of over 50% in size; luciferase read-out
* hit, by the source's call; ? = inconclusive; . = no result given; & = joins results of further samples; [ ] = another dose, or the depositor's remark. Unless noted, calls follow the shape of the dose curve; as a rule, active = well fitted curve in the direction sought with a large enough effect; inconclusive = small, poorly fitted or top-dose-only effect, or another doubt; inactive = no such curve, though single readings can be large; an effect the other way counts as inactive or inconclusive. Potency is read from the fitted curve at half-maximal effect.

SMILES	Cruzain inh Det	Marburg entry inh	NS1 function inh	StopGo reporter	SARS PLpro yeast	RE007 growth inh	Cruzain noTriton	LASV entry inh
COc1ccc(OC)c(NC(=O)c2cnc3n(c2=O)CCS3)c1	3.4%	.	-10%	4%	2%	-3%	-3%	.
O=S(=O)(Cc1cc(Sc2ccc(Cl)cc2)nc(-c2ccccc2)n1)c1ccccc1	-0.3%	?	-2%	-11%	10%	-4%	?	-7%
c1ccc(OCc2nc3ccccc3[nH]2)cc1	-5.3%	4%	-31%	45%[activator]	-13%	-4%	1%	?
CCOC(=O)Cc1csc(NC(=O)Cc2ccc([N+](=O)[O-])cc2)n1	-2.0%	-11%	5%	-24%	14%	1%	-6%	-2%
CCOC(=O)C1CCCN(C(=O)c2cn(CC)c(=O)c3cc(OC)c(OC)cc23)C1 (centres undefined)	3.3%	4%&4%	-6%	9%	0%	14%	6%	5%
C/C(=N\O)c1c(O)cc(-c2ccccc2)n(-c2ccccc2)c1=O	.	?	2%	-8%	1%	-16%	.	?
COc1ccc(NC(=O)c2c(F)cccc2F)cc1S(=O)(=O)Nc1ccc(Br)cc1	-2.5%	?	?	73%[activator]	-10%	5%	16µM*	?
COc1ccc(OCC(=O)N2CCN(S(=O)(=O)c3ccccc3[N+](=O)[O-])CC2)cc1	.	5%[46.1 µM]	.	-12%	-2%	-24%	.	-9%[46.1 µM]
Clc1ccc(C(c2nnnn2C2CCCC2)N2CCSCC2)cc1 (centres undefined)	-2.7%	?	-9%	.	-16%	1%	-1%	-3%
O=C(C1=C[C@H](c2coc3ccccc3c2=O)C[C@H](OCCCCO)O1)N1CCN(Cc2ccccc2)CC1	.	.	-9%	-5%	0%	-5%	.	.
CC(C)Cc1nnc(NC(=O)CCC(=O)NCc2ccccc2Cl)s1	.	4%[46.1 µM]	5%	5%	0%	-1%	.	11%[46.1 µM]
Cc1cc(C)n2cc(CSCC(=O)O)nc2n1	-0.9%	-2%	-5%	-20%	11%	-3%	7%	0%
OCC[C@@H]1C[C@H](O)[C@@H](O)[C@@]2(CCc3ccccc3O2)O1	.	.	20%	2%	-2%	-5%	.	.
CCc1ccccc1NC(=O)CN(C)C(=O)COC(=O)c1ccccc1Cl	.	12%	.	-14%	6%	-11%	.	3%[46.1 µM]
CC(=O)Oc1ccc(N(C(C)=O)S(=O)(=O)c2ccc(C)cc2)c2ccccc12	.	?	.	-30%	.	10%	.	?
COc1ccc(/C=C(\C#N)C(=O)NCCc2ccccc2)cc1OCc1ccccc1	-6.7%	11µM*	39%	-19%	-11%	-7%	2%	?
CCc1ccccc1NC(=O)Cc1ccc(-n2cccc2)cc1	3.0%	-15%	4%	-21%	-2%	-4%	?	7%
CCSc1nc2nn(-c3ccccc3)c(=O)c-2c2n1CCCCC2	-2.4%	0%	3%	0%	-4%	-22%	-2%	-3%
Cc1cc(C)c(NS(=O)(=O)c2ccc(NC(=O)c3cccs3)cc2)c(C)c1	-7.5%	?	2%	?	-1%	31%	9%	-24%
CCOc1ccc(-n2c(SCC(=O)Nc3ccc4c(c3)OCO4)nc3c(c2=O)SCC3)cc1	-3.2%	.	-73%	-21%	6%	-3%	?	.
CCN(CC)C(=O)CSc1nc(O)c(Cc2ccccc2)c(=O)n1-c1ccc(C)cc1	.	.	14%	-1%	1%	4%	.	.
O=C(CN1C2CCC1CC(NC(=O)C1CC1)C2)NCc1ccccc1 (centres undefined)	5.3%	-10%	-1%	12%	-5%	0%	-1%	-1%
Cc1ccccc1C(=O)NC(CC(C)C)C(=O)Nc1cccc(S(=O)(=O)N(C)C)c1 (centres undefined)	.	.	3%	16%	0%	2%	.	.
COc1ccc(OCC(=O)Nc2ccc(Cl)cc2C(=O)c2ccccc2)cc1	-6.2%	-6%[46.1 µM]	1%	10%	-9%	-11%	2%	?
O=C1OC(Nc2ncccn2)c2ccccc21 (centres undefined)	9.1%	13%	-1%	0%	-5%	-11%	8%	18%
COC(=O)C1=Cc2cc(OC)cc([N+](=O)[O-])c2OC1N1CCOCC1 (centres undefined)	.	.	4%	2%	-2%	-6%	.	.
COc1ccc(CC(=O)OCC(=O)NCc2ccco2)cc1OC	.	5%	.	-4%	0%	8%	.	-3%
Cc1ccc(-c2nc(N)sc2-c2ccccc2)cc1C	-11%	?	21%	-16%	-45%	4%	6%	?
CC(C)(C)OC(=O)N1CCC[C@H]1c1nnc(SCc2ccccc2Cl)o1	-5.9%	-16%	-56%	-24%	-13%	23%	?	?
O=C1OCC(O)=C1Cc1ccccc1	.	?	.	-13%	.	-8%	.	15%
O=c1[nH]n(-c2ncnc3c2cnn3-c2ccccc2)c(=O)c2ccccc12	-6.3%	-4%	-31%	0%	-3%	-12%	-3%	-12%
O=S(=O)(c1ccc(Br)c2nsnc12)N1CCOCC1	-3.9%	?	2%	-24%	0%	-1%	-7%	-1%
Cc1nn(Cc2ccccc2)c(Cl)c1C(=O)OCc1nnc(-c2ccccc2)o1	1.4%	14%	-7%	?	-5%	-6%	?	?
Cc1ccc(C)c(N2CCN(C(=O)c3cc4c(C)nc5ccccc5c4o3)CC2)c1	.	.	6%	?	-34%	28%	.	.
OC(COCc1ccc2c(c1)OCO2)CN1CCC(Cc2ccccc2)CC1 (centres undefined)	.	-25%	-3%	0%	-1%	22%	.	-27%
Cc1ccc(C2C3=C(CC(C)(C)CC3=O)NC3=C2C(=O)CC(C)(C)C3)o1	-2.1%	27%	-5%	-1%	4%	7%	-8%	1%
Cc1ccc(NN=C2C(=O)OC(C)(C)OC2=O)c(C)c1	-12%	?	-2%	40%[activator]	-2%	.	-18%	?
COCCNC(=O)c1ccc2c(c1)N(Cc1c(F)cccc1Cl)C(=O)c1ccccc1S2	-3.0%	-15%[46.1 µM]	.	-20%	.	.	?	?
CN(C)S(=O)(=O)c1cc(NC(=O)COC(=O)Cc2ccccc2)ccc1Cl	-7.4%	3%	-24%	-20%	-2%	0%	-10%	?
O=C(NC1CCCCC1)n1c(=O)oc2ccccc21	0.2%	-5%	-2%	32%[activator]	5%	-13%	-3%	13%
Fc1cc(Br)ccc1Nc1c2c(nc3nc(-c4cccs4)nn13)CCCC2	2.1%	.	.	?	.	.	-6%	?
Cc1ccc(-n2nc(C)c3c(C)c(CCC(=O)NCc4ccc(Cl)cc4)c(C)nc32)cc1	-0.4%	12%[46.1 µM]	.	-24%	.	.	-8%	2%[46.1 µM]
CCOC(=O)CC(=O)CSc1ccc2nnc(-c3ccccc3)n2n1	-2.0%	-10%	?	7%	-3%	11%	4%	2%
COc1ccc(-c2noc(C3CCCN(C(=O)c4ccccc4C)C3)n2)cc1 (centres undefined)	.	?	-28%	-27%	-5%	-20%	.	-29%[46.1 µM]
CCCN1CCN(CCCNC(=O)c2ccc(CS(=O)c3ccc(OC)cc3)o2)CC1 (centres undefined)	-2.9%	-6%&-6%[46.1 µM]	-2%	-13%&-16%	-2%	2%	9%	?
COc1ccc(-c2cnc3nc[nH]c(=O)c3n2)cc1	-4.7%	-21%	23%	7%	-13%	-12%	-19%	17%
Cc1ccc(NC(=O)Nc2cccnc2)cc1	.	0%	-15%	65%[activator]	-3%	-4%	.	7%
O=C(NCCCN1CCN(c2ccccc2F)CC1)Nc1ccc(F)cc1	1.6%	?	-5%	?	1%	0%	11%	-1%
COc1ccc(-c2csc(Cc3nnc4n3CCCCC4)n2)cc1OC	0.9%	8%	-2%	-7%	3%	-7%	-7%	9%
CCc1cccc(C)c1NC(=O)c1cccnc1	.	-2%	12%	-1%	-1%	-11%	.	28%
COc1ccc(-c2nc(C#N)c(NCCCn3ccnc3)o2)cc1OC	-16%	?	5%	69%[activator]	-5%	-4%	-21%	21%
COc1ccc(-c2nc(C#N)c(N3CCC(C)CC3)o2)cc1	.	?	-7%	-7%	1%	-5%	.	-12%[46.1 µM]
CCCCN(CC)CCNC(=O)c1cn(-c2ccc(Cl)cc2)c(=O)c2ccccc12	.	?	.	3%	2%	-19%	.	?
Clc1ccc(-c2noc(CSc3nnc(Cc4cccs4)n3-c3ccccc3)n2)cc1	2.1%	-2%	29%	-21%	-9%	-14%	-1%	.
Fc1ccc(-n2nnnc2-c2ccccc2Cl)cc1	.	?	-4%	-7%	0%	28%	.	-26%[46.1 µM]
CCOCCc1nn2c(=O)cc(COC(=O)c3ccc4c(c3)OCO4)nc2s1	1.3%	.	.	9%	.	.	0%	-6%[46.1 µM]
O=C(COC(=O)c1ccc(OC(F)F)cc1)NCCNC(=O)COC(=O)c1ccc(OC(F)F)cc1	.	16%[46.1 µM]	17%	-7%	-2%	9%	.	1%[46.1 µM]
CCOC(=O)c1cnc2c(Cl)cc(Cl)cc2c1NCCOCCO	-0.7%	?	-10%	.	2%	-7%	2%	-2%
O=S1(=O)CC(O)C(N(CCO)C(=S)Nc2ccccc2)C1 (centres undefined)	.	5%[46.1 µM]	-1%	-12%	-1%	0%	.	8%
CCc1cc(SC#N)cc(C)c1NC(=O)CCl	-6.9%	?	-24%	-21%	-18%	23%	3%	?
(list continues)
SMILES	Cruzain inh Det	Marburg entry inh	NS1 function inh	StopGo reporter	SARS PLpro yeast	RE007 growth inh	Cruzain noTriton	LASV entry inh
CCOC(=O)C1=C(C)N(C)C(=S)NC1c1ccc(Cl)cc1Cl (centres undefined)	-7.5%	?	6%	0%	?	25%	-15%	?
N#CCSc1nnc2c(Cl)cc(Cl)cn12	4.2%	-10%	-4%	16%	-4%	-7%	-10%	5%
COC(=O)c1ccc(Cn2cnc3c(N)ncnc32)cc1	.	-4%	.	-18%	.	6%	.	?
COc1cc(-c2csc(CCn3nc(C)cc3C)n2)cc(OC)c1OC	.	?	5%	?	-5%	17%	.	7%
O=C(CN1C(=O)c2cccc3cccc1c23)NCc1ccccn1	2.5%	0%	-5%	18%	1%	15%	-8%	?
Cc1nc(SCC(=O)NCc2ccco2)c2oc3ccccc3c2n1	-3.2%	-21%	-23%	-4%	6%	11%	17%	0%
